Six1-Eya2 blk = inhibitors of human Six1/Eya2 interaction; AlphaScreen GST-Six1/His-Eya2 binding, biochemical; hits give low values; control for the full effect not named in the record; activity change, % (no concentration beside the values); 0.56% of 360,000 active; AID 651725; in the data active = activity change below about -65%; inconclusive = about -30% to -65%; inactive = above about -30%; note: % is set by controls: 0 for no effect and ±100 for the full control effect; compound concentration not given in the record
Target sequence (O00167 whole entry, looked up): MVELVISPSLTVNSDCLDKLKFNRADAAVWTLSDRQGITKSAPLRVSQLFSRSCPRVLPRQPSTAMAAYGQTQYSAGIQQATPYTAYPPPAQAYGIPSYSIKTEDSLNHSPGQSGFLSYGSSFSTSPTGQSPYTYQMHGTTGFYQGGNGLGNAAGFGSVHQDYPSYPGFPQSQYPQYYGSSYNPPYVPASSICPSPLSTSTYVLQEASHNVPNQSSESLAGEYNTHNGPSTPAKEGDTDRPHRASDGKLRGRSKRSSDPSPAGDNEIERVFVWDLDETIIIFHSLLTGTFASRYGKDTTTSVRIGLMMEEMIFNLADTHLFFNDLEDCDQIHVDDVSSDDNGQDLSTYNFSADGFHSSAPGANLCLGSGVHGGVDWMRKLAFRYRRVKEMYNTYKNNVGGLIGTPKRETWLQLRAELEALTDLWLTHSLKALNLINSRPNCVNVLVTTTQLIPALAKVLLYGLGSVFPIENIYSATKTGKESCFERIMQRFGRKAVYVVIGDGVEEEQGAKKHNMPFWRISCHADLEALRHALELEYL
Target sequence (Q15475 whole entry, looked up): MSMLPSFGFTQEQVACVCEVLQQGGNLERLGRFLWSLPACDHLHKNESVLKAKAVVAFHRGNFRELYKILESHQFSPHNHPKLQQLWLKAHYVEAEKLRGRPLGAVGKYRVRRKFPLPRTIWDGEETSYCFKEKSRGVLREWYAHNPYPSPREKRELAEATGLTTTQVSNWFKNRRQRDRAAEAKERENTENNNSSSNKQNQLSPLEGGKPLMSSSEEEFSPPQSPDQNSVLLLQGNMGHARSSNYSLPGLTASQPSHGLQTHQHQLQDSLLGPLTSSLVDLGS
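GST-Six1 + His-Eya2 (5X stock: 250/500 nM); Tris pH 8.0, 300 mM NaCl, 0.05% BSA, 0.02% Tween 20; GSH donor/Ni acceptor beads; 1 h 37 °C dark; AlphaScreen readout.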
D2 PAM = positive allosteric modulators of human D2 dopamine receptor. P14416. DiscoveRx D2 beta-arrestin cells, luminescence, 90 min; 100% = 57 uM dopamine signal. potentiation, % (concentration not given with the values). 0.23% of 360,000 active; active = potentiation of 50% or more; inconclusive = 30% to 50%; inactive = 30% or less;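 note: compound concentration not given in the record; tested on top of an EC20 dose of dopamine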
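PathHunter D2 cells, attached overnight at 37 deg C, received compound in DMSO plus dopamine at EC20 (50 nM final) for 90 min at 37 deg C. Beta-arrestin recruitment was read as luminescence after 1 h with detection reagent at ambient temperature.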
CtBP-E1A blk = blocks the CtBP interaction with E1A | AlphaScreen GST-E1A/His-CtBP binding, 1536-well; hits give low values; control for the full effect not named in the record | AID 651724 | activity change, % (no concentration beside the values) | 0.49% of 340,000 active; in the data active means activity change below about -65%; inconclusive means about -30% to -65%; inactive means above about -30%; note: % is set by controls: 0 for no effect and ±100 for the full control effect; compound concentration not given in the record
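AlphaScreen with 125 nM GST-E1A and 125 nM His-CtBP (5X stocks) in Tris pH 8.0, 300 mM NaCl, BSA, Tween 20, TCEP. Compounds preincubated 2 h at 37 deg C, then glutathione donor/nickel acceptor beads added for 1 h at 37 deg C in dark.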
PINK1 modulator = PINK1 expression modulation. PINK1 immunofluorescence, high-content cytometry, 24 h. Potency, µM (titrated, usually from 76.6 µM), without a hit: top-dose activation (PINK1 increase), hits mostly activators. 0.2% of 410,000 active; active = well fitted activation curve with a large enough effect; inconclusive = small, poorly fitted or top-dose-only effect; inactive = flat fitted curve, though single readings scatter; cell line not stated here;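 note: potency is the fitted concentration of half-maximal effect; % of control where 0% means no effect; nearly all actives have a fitted effect of over 65% in size; a mitochondrial uncoupler was the plate control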
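Decision-based qHTS: stable cells, 24 h exposure to five compound concentrations, CCCP as control. Fixed cells stained for PINK1 plus nuclear, mitochondrial and cell markers, cytometer read.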
Sfp PPTase inh = inhibitors of Bacillus subtilis Sfp phosphopantetheinyl transferase. Q9F4F7. Biochemical Sfp PPTase activity, qHTS. Potency, µM, without a hit: max response, negative = inhibition, most hits filed as inhibitors. 3.5% of 310,000 active; active = well fitted inhibition curve with a large enough effect; inconclusive = small, poorly fitted or top-dose-only effect, or another doubt; inactive = no such curve, though single readings can be large or run the other way;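 note: the enzyme is Sfp with the accession as filed and its product quenches rhodamine fluorescence; potency is the fitted concentration of half-maximal effect; 0% = enzyme reaction without inhibitor and -100% = no enzyme wells; top concentration of the series not given in the record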
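After 15 min at room temperature with compound, 15 nM Sfp received 5 uM rhodamine-CoA plus 12.5 uM BHQ-2-ybbR (50 mM Hepes pH 7.6, 10 mM MgCl2). Rate came from the fluorescence difference over 30 min, ex 525/em 598 nm.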
D2 ag = agonists of human D2 dopamine receptor (beta-arrestin). P14416. DiscoveRx PathHunter D2 beta-arrestin, luminescence, 90 min; 100% = 57 uM dopamine signal. activation, % (test concentration not listed). 0.084% of 360,000 active. AID 624465; in the data active = activation above about 40%; inconclusive = about 15% to 40%; inactive = below about 15%; note: compound concentration not given in the record; the text of the record calls up to 30% inactive
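DiscoveRx PathHunter D2 beta-arrestin cells (2,100/well) attached overnight, then compound-stimulated 90 min at 37 C in HBSS/10 mM HEPES/0.1% Tween-20 buffer; beta-galactosidase complementation read by luminescence after 1 h at ambient temperature. Dopamine 57 uM final (EC100) as control.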
TRPV1 potentiator = enhances activation of the human vanilloid receptor TRPV1; Q8NER1; potentiation, % at 8.33 µM; 0.02% of 320,000 active; TRPV1-expressing cells, Fluo-8 calcium influx, capsaicin EC20 potentiation; host cell line not named in the record; control for the full effect not named in the record; active means potentiation above 80%; inconclusive means 30% to 80%; inactive means below 30%; note: 0% is about no effect
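Cells expressing TRPV1 were dye-loaded with Fluo-8 and read kinetically: 10 s baseline, 3 min after compound (agonist portion), then 2 min after EC20 capsaicin (allosteric enhancer portion). Calcium-bound dye fluorescence at 480/520 nm.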
Active calls of the source: *; ? = inconclusive; . = no result given; & = joins results of further samples; ! = a repeat was not active; [ ] = remark or other dose.

SMILES | Six1-Eya2 blk | D2 PAM | CtBP-E1A blk | PINK1 modulator | Sfp PPTase inh | D2 ag | TRPV1 potentiator
Cc1ccc(CNC(=O)C2CCC(=O)N2CCc2ccccc2)cc1 (stereo not drawn) | 7 | 0 | 1 | -0.6%[38.3 µM] | 5% | 0.2 | 5
O=C(Oc1nsnc1N1CCCCC1)N1CCOCC1 | -7 | 1 | -3 | -0.3% | -11% | -2.4 | -53
Cc1noc(C)c1CSc1nc2ccccc2n1C | -15 | 5 | -18 | 0.1% | 3% | -1.7 | 1
CCCc1[nH]nc2c1C(CCc1ccccc1)C(C#N)=C(N)O2 (stereo not drawn) | -2 | -14 | -7 | -0.7% | 19% | -2.9 | 20
CN1CCN(c2ccccc2NC(=O)Cn2ncc3c([nH]c4ccccc43)c2=O)CC1 | -2 | -21 | . | 0.4% | 15% | -7.0 | -1
Cn1cc(Cl)c(/C=C(\C#N)S(=O)(=O)c2ccccc2)n1 | -1 | -15 | . | 1.2% | 0% | -4.3 | -6
COc1ccc(/C(O)=C2/C(=O)C(=O)N(CCCC(=O)O)C2c2ccc(OC)c(OC)c2)cc1 (stereo not drawn) | 2 | -14 | 4 | -0.1% | 5% | -1.7 | 19
Cc1cc(OCC(=O)NCCCN2CCOCC2)c2c(C)cc(=O)oc2c1 | 1 | -5 | 2 | -1.3% | 20% | -6.5 | -6
Cc1nn(C2CCS(=O)(=O)C2)c(C)c1CN(C)C(=O)c1ccc(F)cc1 (stereo not drawn) | 9 | -11 | -16 | 1.1% | . | -1.3 | .
COc1cccc(N(CC(=O)NC2CCCCCC2)S(=O)(=O)c2ccccc2)c1 | 2 | -19 | 3 | 4.5% | 12% | 0.4 | -10
NC(=O)c1coc(-c2ccccc2)n1 | -1 | -2 | . | -1.6% | 16% | -3.1 | 2
COc1ccc(NC(C)=O)cc1CNC(=O)COc1c(C)c(C)cc(C)c1C | 2 | -19 | 23 | 13% | 22% | -3.0 | 7
O=C(N/N=C/c1cccnc1)c1cc(-c2ccccc2OCc2ccccc2)n[nH]1 | -8 | 10 | -7 | 0.6% | 2% | 2.3 | 3
Cc1sc2ncn(CC(=O)NCc3ccco3)c(=O)c2c1-c1ccccc1 | 7 | -12 | 4 | -1.3% | 6% | -1.6 | 20
COCCOC(=O)C1=C(C)OC(N)=C(C#N)C1c1ccco1 (stereo not drawn) | -3 | -9 | 0 | 0.9% | -9% | -7.1 | 10
CCNC(=S)N(Cc1ccc(OC)cc1)C1CC(=O)N(c2ccc(OCC)cc2)C1=O (stereo not drawn) | -5 | -9 | -12 | ? | 15% | -3.1 | 5
O=Cc1ccccc1OCc1nnsc1Cl | 2 | 0 | 9 | 2.2% | 17% | -8.0 | -2
Fc1ccc(Oc2cc(N3CCOCC3)nc(-c3ccccc3)n2)c(F)c1 | 4 | -17 | 6 | 3.8% | 3% | -1.2 | -6
Cc1cc(C)cc(OCC(=O)Nc2nc(-c3ccccn3)cs2)c1 | -18 | 0 | -24 | 24% | . | 8.2 | 16
CCCCOC(=O)Nc1ccc(C(C)C)cc1 | 32 | -26 | 21 | -1.6% | 6% | 0.7 | -1
CC(NC(=O)c1cc2c(=O)n(C)c3ccccc3c2n1C)c1ccc2c(c1)OCCO2 (stereo not drawn) | 2 | 0 | 4 | 2.2% | . | 3.4 | .
O=C(NCCc1ccccc1)c1coc(=O)c(Br)c1 | -5 | 2 | -11 | 10% | 1% | 1.8 | 11
Cc1nn(CC(=O)N2CCN(c3cccc(C(F)(F)F)c3)CC2)c(=O)c2cccn12 | 0 | -27 | 1 | 0.4%&1.3% | 11% | -3.0 | 9
Cc1c(NC(=O)c2n[nH]c(=O)c3ccccc23)c(=O)n(-c2ccccc2)n1C | 5 | -13 | 3 | -0.9% | 5% | -2.3 | 0
CC(NC(=O)c1cc(F)c(F)cc1Cl)C1CC2CCC1C2 (stereo not drawn) | 14 | -4 | 6 | 1.4% | 0% | -2.5 | -6

Given with each value named: part of the list above
> Cc1ccc(CNC(=O)C2CCC(=O)N2CCc2ccccc2)cc1 (stereo not drawn)
  Six1-Eya2 blk: 7
  D2 PAM: 0
  CtBP-E1A blk: 1
  PINK1 modulator: -0.6%[38.3 µM]
  Sfp PPTase inh: 5%
  D2 ag: 0.2
  TRPV1 potentiator: 5

> NC(=O)c1coc(-c2ccccc2)n1
  Six1-Eya2 blk: -1
  D2 PAM: -2
  CtBP-E1A blk: .
  PINK1 modulator: -1.6%
  Sfp PPTase inh: 16%
  D2 ag: -3.1
  TRPV1 potentiator: 2

> O=C(NCCc1ccccc1)c1coc(=O)c(Br)c1
  Six1-Eya2 blk: -5
  D2 PAM: 2
  CtBP-E1A blk: -11
  PINK1 modulator: 10%
  Sfp PPTase inh: 1%
  D2 ag: 1.8
  TRPV1 potentiator: 11

> O=C(Oc1nsnc1N1CCCCC1)N1CCOCC1
  Six1-Eya2 blk: -7
  D2 PAM: 1
  CtBP-E1A blk: -3
  PINK1 modulator: -0.3%
  Sfp PPTase inh: -11%
  D2 ag: -2.4
  TRPV1 potentiator: -53

The listing continues.
SMILES | Six1-Eya2 blk | D2 PAM | CtBP-E1A blk | PINK1 modulator | Sfp PPTase inh | D2 ag | TRPV1 potentiator
O=C(CO)N/N=C/c1ccccc1F | 3 | -5 | 8 | 2.3%[38.3 µM] | -4% | -3.9 | -3
CCN(CC)c1ccc(/C=N/NC(=O)c2ccoc2C)cc1 | -5 | 3 | -3 | -1.1% | 6% | 3.1 | -1
CN(C(=O)COC(=O)c1cc(S(=O)(=O)N(C)C)ccc1Cl)C1CCS(=O)(=O)C1 (stereo not drawn) | -1 | -10 | 6 | 2.8% | . | -4.7 | 8
O=C(Cc1cccs1)N/N=C/c1ccc(OCc2ccccc2)cc1 | 3 | -1 | 1 | 7.8% | 20% | -2.8 | 4
O=C(c1ccco1)N1CCN(c2c(-c3ccccc3)c3cc(Cl)ccc3[nH]c2=O)CC1 | 4 | -9 | 8 | . | -19% | -1.2 | 10
CC(C)CC(=O)NC(=S)Nc1ccc(CN2CCOCC2)cc1 | -7 | -3 | 7 | 1.2% | 14% | -1.3 | 6
COc1cc(CO)ccc1OCC(=O)Nc1cccc2ccccc12 | -8 | -11 | 19 | -1.0% | 18% | -3.2 | -2
O=C(c1ccc2ccccc2n1)N1CCN(c2ccccc2O)CC1 | 1 | ? | 6 | 2.3% | -9% | -2.8 | 2
CSc1cccc(NC(=O)Cn2cccc2)c1 | -15 | -1 | -11 | 4.3%[38.3 µM] | -1% | 0.9 | .
O=C(N/C(=C/c1cccc(Br)c1)C(=O)N1CCCCC1)c1ccco1 | 6 | -8 | 2 | 2.2% | . | -2.0 | .
CCCCOC(=O)c1ccc(NC(=O)COC(=O)C2CSC3(C)CCC(=O)N23)cc1 (stereo not drawn) | -3 | -20 | 8 | 1.2% | . | -3.1 | -19
COc1ccc(N2CCN(C(=O)COC(=O)c3oc4ccc(OC)cc4c3C)CC2)cc1 | ? | -17 | -23 | 2.1% | . | 3.2 | 3
CC(C)NC(=O)C1(C)CCN1C(=O)c1cccc(F)c1 (stereo not drawn) | 6 | -2 | 3 | 0.9% | . | -6.7 | .
CC(C(=O)Nc1ccccc1Sc1ccccc1)N(c1ccccc1)S(C)(=O)=O (stereo not drawn) | 6 | 15 | 2 | -4.0% | 8% | 2.8 | 3
COc1ccc(C2CC(=O)Oc3c(C(CCN4CCCC(C)C4)c4ccc(N(C)C)cc4)c(OC)cc(OC)c32)cc1 (stereo not drawn) | ? | -19 | ? | 2.2% | 89µM*! | 1.1 | -1
Cc1ccc(C(=O)Nc2ccccc2N2CCN(C(=O)C(C)C)CC2)cc1C | -3 | -11 | -9 | -3.3% | 5% | -0.5 | 16
C#CCN(C)CCCOc1ccc(Cl)cc1Cl | 5 | -18 | 6 | 5.8% | -12%&-5%&3% | 2.6 | -7
CCCOC(=O)/C=C/c1c(C)[nH]c(=O)[nH]c1=O | 10 | 2 | 2 | 0.1% | 10% | -0.2 | 10
CCN(C(=O)CSc1nccn1C)c1cccc2ccccc12 | 0 | 0 | 7 | 0.1% | . | -0.5 | 3
Cc1[nH]c2ccccc2c1/C=N/NC(=O)CNC(=O)c1ccco1 | 3 | -10 | -2 | 1.3% | 5% | 1.7 | 2
Cc1ccc(-c2cnc(NC(=O)CCC(=O)N3CCCCC3)n2C)cc1 | -1 | -8 | -2 | 5.8%[38.3 µM] | -11% | -0.8 | -26
C[C@]12c3[nH]c4ccc(Cl)cc4c3CCN1C(=O)[C@@H](CC(=O)NCc1cccc(C(F)(F)F)c1)C[C@@H]2C(=O)N1CCOCC1 | -5 | -2 | -6 | 24% | . | 0.3 | .
CN1C=CC=C/C1=C1\SC(=S)N(CC(=O)O)C1=O | -1 | -5 | 1 | 0.1% | 45µM* | -0.1 | 23
CC(C)(CCl)C(=O)Nc1ccnc(-c2ccncc2)n1 | 11 | -38 | -13 | -1.2% | 12% | -1.1 | ?
NC(=O)CSc1cn(Cc2cccc(F)c2)c2ccccc12 | -5 | -1 | -1 | 0.9% | 17% | -1.3 | 1

Ordered by value in D2 ag (smallest number first): 3 of the compounds above
| molecule | D2 ag |
| --- | --- |
| O=C(c1ccc2ccccc2n1)N1CCN(c2ccccc2O)CC1 | -2.8 |
| Cc1ccc(-c2cnc(NC(=O)CCC(=O)N3CCCCC3)n2C)cc1 | -0.8 |
| COc1ccc(N2CCN(C(=O)COC(=O)c3oc4ccc(OC)cc4c3C)CC2)cc1 | 3.2 |

More entries.
SMILES | Six1-Eya2 blk | D2 PAM | CtBP-E1A blk | PINK1 modulator | Sfp PPTase inh | D2 ag | TRPV1 potentiator
COc1ccc(/C=C(\C#N)c2nc3ccccc3[nH]2)cc1O | -13 | -2 | -1 | 8.3% | 4% | 1.1 | -49
O=C(Nc1scc(-c2ccc(Br)cc2)c1C(=O)O)c1ccccc1F | ? | -5 | -18 | 0.6% | . | 1.5 | .
CC1(C)C(=O)NC(=O)N1Cc1ccccc1 | 1 | -16 | 8 | -0.6% | . | -2.6 | -28
CN(C)c1ccc(/C=N/N(CCC#N)C2=NS(=O)(=O)c3ccccc32)cc1 | ? | 0 | ? | 7.8% | -2% | -0.5 | 4
CCOC(=O)c1c(OCCO)nn(-c2ccccc2)c1N | 0 | -1 | 0 | 0.4% | 0% | -1.7 | -19
COCC1CCN(C(=O)c2ccc3oc(CCc4ccccc4)nc3c2)C1 (stereo not drawn) | 3 | -9 | 1 | 5.8% | . | -0.9 | .
O=C(NCc1ccccn1)c1cccc(S(=O)(=O)NCc2ccccc2)c1 | -15 | -9 | 11 | -1.0% | . | -1.1 | 7
